Tgondii IFNg: T. gondii growth inhibition with IFN-gamma, primary screen, cell-based | Toxoplasma gondii growth in IFN-gamma-treated host cells; hits give low values; reference of the scale not given here | activity change, negative = inhibition, %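 (about 20 µM by stock and volumes)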 | actives 3.8% (n = 69,000);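 active = below -70%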;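 also: host cells are HeLa cells infected with Toxoplasma gondii; parasite growth read as luciferase light; one replicate is shown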
Numbers without * were called inactive; i = inactive.

SMILES | Tgondii IFNg
COc1ccc(-c2cnc(NC(=O)c3ccnn3C(C)C)n2C)cc1 | -27
CNC(=O)C[C@H]1CC[C@@H]2[C@H](COC[C@H](O)CN2Cc2ccccc2F)O1 | 34
COc1ccc(-c2cn(CC[C@H]3CC[C@H](NC(=O)c4cnccn4)[C@H](CO)O3)nn2)cc1 | -15
Nc1nc(C(=O)N2CCOCC2)nn1S(=O)(=O)c1ccc(Cl)cc1 | -8
CCCC(=O)N1C[C@H]2[C@@H](c3ccccc31)[C@@H](CO)N2C(=O)Nc1ccc(F)cc1 | -5
CN(C)C(=O)CN1CCN(C)C(=O)C12CCN(c1ncc(F)cn1)C2 (stereo not drawn) | -2
Cc1noc(C)c1CC(=O)NCCN1Cc2ccccc2OC(c2ccsc2)C1 (stereo not drawn) | -1
O=C(Nc1ccc(F)cc1)N1CC(=O)N2[C@H](C1)[C@@H](c1ccc(-c3cccc(F)c3)cc1)[C@@H]2CO | -59
O=C(c1ccccn1)N1CC[C@H]2[C@H](CO)Nc3ccc(Br)cc3[C@H]21 | 15
Cc1cc(C)n(Cc2nc(-c3ccc(NC(=O)c4ccc(C)c(F)c4)cc3)oc2C)n1 | 17
CO[C@@H]1CC[C@H]2CCN(C)C(=O)CCCN(C)C(=O)c3cc(C#N)ccc3OC[C@H]1O2 | -33
O=C(c1cn2c(n1)CSCC2)N1CCC(Cc2ccccc2)CC1 | -20
O=C(c1cccc2c1OCC2)N1CCc2[nH]nc(-c3ccc4c(c3)OCO4)c2C1 | -53
COc1ccc(CN(Cc2cccnc2)C(=S)Nc2cccc(Cl)c2)cc1OC | -20
CCN(C[C@H]1[C@H](c2ccccc2)[C@@H](CO)N1C(=O)COC)S(C)(=O)=O | 8
COc1ccccc1OS(=O)(=O)c1ccc(NC(C)=O)cc1 | 11
CC(C)C[C@@H]1COCn2nncc2CCCC(=O)N1 | -22
N#C[C@@H]1[C@H](c2ccccc2C2=CCCCC2)[C@H](CO)N1C(=O)Nc1ccccc1F | -43
O=C(NC1CCCc2c1cnn2-c1ccc(F)cc1)c1ccncc1 (stereo not drawn) | -28
Cc1ccccc1-c1ncc(-c2nccn2-c2ccc3n[nH]nc3c2)cn1 | -4
CCCC(=O)N1CC2(C1)CN(C(=O)c1ccc(F)cc1)[C@H](CO)c1[nH]c3cc(OC)ccc3c12 | 5
c1cnc(N2CCC3(CCN(Cc4nccs4)CC3)C2)nc1 | -2
CC(Cc1ccc2c(c1)OCO2)c1nccn1CCN1CCCOC1=O (stereo not drawn) | 1
Fc1ccc(-c2nnc(-c3nc(N4CCN(c5cccc(Cl)c5)CC4)c4ccccc4n3)o2)cc1 | 31
CCOC(=O)N1CCN(C(=O)C2=C(C)C(=O)OC23CCN(S(=O)(=O)c2cccs2)CC3)CC1 | -2
(list continues)
SMILES | Tgondii IFNg
Cc1nn(-c2ccccc2)c(C)c1CCC(=O)Nc1nc(C(C)C)cs1 | -1
CC(=O)N1C[C@@H](NC(=O)c2nccn2C)[C@@H]2OCCC[C@@H]21 | -11
Cc1c(-c2ccccc2)oc2c(C(=O)OCCN3CCCCC3)cccc2c1=O | 5
CC[C@H]1C/C=C\C[C@H](CC)NC(=O)[C@H](C)CC(=O)N1 | 13
COc1cccc(N2CC3(CCN(C(=O)Nc4cccc(C)c4)C3)CC2=O)c1 (stereo not drawn) | 8
CCOc1cccc(C2c3[nH]c4ccccc4c3CCN2C(=O)c2cccc(C)c2)c1 (stereo not drawn) | -112*
CO[C@@H](CN(C)S(=O)(=O)c1ccc(C)cc1)[C@@H](C)CN(C(=O)Nc1ccccc1F)[C@H](C)CO | 42
CN(Cc1ccncc1)Cc1cnn(-c2ccc(F)cc2)c1 | -1
COc1cccc(-c2ccc(C(=O)N3CCC(CN4CCCC4=O)CC3)cn2)c1 | 0
C[C@H](CO)N1C[C@H](C)[C@@H](CN(C)C(=O)[C@@H](Cc2ccccc2)N(C)C)OCc2ccccc2-c2ccccc2C1=O | 20
O=C1CCCN1CC1CCN(C(=O)c2ccc(N3CC(O)C3)nc2)CC1 | 9
CCc1sc(N2[C@@H](C#N)[C@@H](c3ccccc3-c3cccc(F)c3)[C@@H]2CO)nc1C | -15
Cc1nc(-c2cccc(F)c2)sc1CCNC(=O)COc1ccc(Cl)cc1 | -21
C/C=C/c1cnc2c(c1)C(=O)N([C@@H](C)CO)C[C@H](C)[C@@H](CN(C)C(=O)Nc1cccc(OC)c1)O2 | i
CCOc1ccnc(N2CCCC(OCc3cccnc3)C2)n1 (stereo not drawn) | 1
CC(C)Cc1ncc2c(n1)CN(C(=O)c1ccn3nnnc3c1)C2 | 24
C[C@@H]1CN([C@@H](C)CO)C(=O)c2cc(NC(=O)Cn3cnnn3)ccc2O[C@@H]1CN(C)Cc1ccc(C(=O)Nc2ccccc2N)cc1 | -50
CCC(=O)N1CCC[C@]2(C[C@@H](OCc3ccncc3)CO2)C1 | -7
CC(C)C(=O)NCCn1cc(C(C)c2ccccc2)nn1 (stereo not drawn) | -1
Cc1nc2n(n1)CCN(C(=O)c1cc3c(s1)CCC3)C2 | -10
COc1ccccc1-c1nc(Cn2nnc(-c3nc(-c4ccc(OC(C)C)cc4)no3)c2C)c(C)o1 | -5
C[C@@H]1CN([C@H](C)CO)C(=O)c2ccccc2-c2ccccc2CO[C@H]1CN(C)S(=O)(=O)c1cccs1 | -40
Cc1ccc(C(=O)N2CC[C@@H](OCC3CC3)[C@@H]2Cc2ccccc2)o1 | 0
CN1C[C@@H](O)COC[C@H]2O[C@@H](CC(=O)NC3CCCC3)CC[C@@H]21 | 22
CCn1cnc(NC(=O)N2CCCC(c3ccccc3)CC2)n1 (stereo not drawn) | -4

Given in markdown: 5 of the compounds above
| mol | Tgondii IFNg |
| --- | --- |
| CCn1cnc(NC(=O)N2CCCC(c3ccccc3)CC2)n1 (stereo not drawn) | -4 |
| CC(C)C[C@@H]1COCn2nncc2CCCC(=O)N1 | -22 |
| COc1cccc(N2CC3(CCN(C(=O)Nc4cccc(C)c4)C3)CC2=O)c1 (stereo not drawn) | 8 |
| O=C(c1cccc2c1OCC2)N1CCc2[nH]nc(-c3ccc4c(c3)OCO4)c2C1 | -53 |
| C/C=C/c1cnc2c(c1)C(=O)N([C@@H](C)CO)C[C@H](C)[C@@H](CN(C)C(=O)Nc1cccc(OC)c1)O2 | i |

Next part.
SMILES | Tgondii IFNg
CCc1nc(CN(C)C(=O)c2cc(Cn3ccc4ccccc43)[nH]n2)no1 | 12
CC1CCC(C(=O)N(c2cc(C#CC(C)(C)C)sc2C(=O)O)C2CCC(O)CC2)CC1 (stereo not drawn) | 3
COc1cc(N2CCc3cc(C(=O)O)c(C)nc3CC2)ncn1 | -23
COc1ccc2c3c([nH]c2c1)[C@H](CO)N(C(=O)C1CCOCC1)CC31CN(C(=O)NC(C)C)C1 | 10
COc1ccc(NC(=O)N(C)C[C@H]2OCCCC[C@H](C)Oc3ccc(NC(=O)c4ccncc4)cc3C(=O)N([C@@H](C)CO)C[C@@H]2C)cc1 | i
Cc1nc(-c2ccc(F)cc2)sc1CCNC(=O)C(C)(C)C | 386
COc1ccc(NC(=O)c2ccncc2Cl)c(NC(=O)C(C)C)c1 | 7
O=C(Cn1cccc1-c1nc(-c2ccc(Cl)cc2)cs1)N1CCC2(CC1)OCCO2 | 13
O=C(NCC1CCCO1)c1ccc(S(=O)(=O)N2CCCCC2)cc1 (stereo not drawn) | -3
Cc1ccc(S(=O)(=O)Nc2ccc3c(c2)CCC(=O)N3CC(C)C)cc1Cl | -93*
COc1cc(NC(=O)c2cc3ccccc3o2)ccc1NC(=O)c1cccs1 | -111*
CCOc1ccc(Cl)cc1CN(C)Cc1cc2n(n1)CCCNC2 | -5
COc1ccc(C#Cc2ccc3c(c2)[C@H]2[C@H](CCN2C(=O)c2cnccn2)[C@H](CO)N3)cc1 | -59
O=C(Cn1ncc2ccccc2c1=O)Nc1ccc2c(c1)CN(Cc1ccccc1)C2 | 2
CS(=O)(=O)N1CC(=O)N2[C@H](CO)[C@H](c3ccc(Br)cc3)[C@@H]2C1 | 3
Cc1ccc(S(=O)(=O)NC(=O)Nc2cc(C(C)(C)C)on2)cc1 | 21
CCn1ccnc1CN(C)c1cc(N2CCOCC2)nc(N)n1 | 6
CCC1(CO)CCCN(c2ncc(C(F)(F)F)cc2Cl)C1 (stereo not drawn) | 1
COc1cccc(NC(=O)C[C@H]2CC[C@@H]3[C@H](COc4ccc(NC(=O)C5CC5)cc4C(=O)N3C)O2)c1 | -12
O=C(C(c1ccc(Cl)cc1)N1CCOCC1)N1CCCCC1CCN1CCCC1 (stereo not drawn) | 3
COCC(=O)Nc1ccc2c(c1)C(=O)N(C)[C@@H]1CC[C@H](CC(=O)NC3Cc4ccccc4C3)O[C@@H]1CO2 | -9
C=CCN1CCN(C(=O)c2cc(C(C)C)[nH]n2)C(Cc2cccc(-c3cccnc3)c2)C1=O (stereo not drawn) | -15
O=C(NCc1cccnc1Oc1ccccc1F)c1ccc2n[nH]nc2c1 | 3
Cc1ccccc1C1(O)CCN(C(=O)COc2ccc3nsnc3c2)CC1 | 48
COc1ccccc1-n1cc(CNC(=O)c2ccc(=O)n(C)c2)cn1 | 2

As entered above.
CCOc1ccc(Cl)cc1CN(C)Cc1cc2n(n1)CCCNC2 in Tgondii IFNg reads -5
Cc1nc(-c2ccc(F)cc2)sc1CCNC(=O)C(C)(C)C in Tgondii IFNg reads 386

The listing picks up, starting 4 compounds before the break.
SMILES | Tgondii IFNg
C=CCN1CCN(C(=O)c2cc(C(C)C)[nH]n2)C(Cc2cccc(-c3cccnc3)c2)C1=O (stereo not drawn) | -15
O=C(NCc1cccnc1Oc1ccccc1F)c1ccc2n[nH]nc2c1 | 3
Cc1ccccc1C1(O)CCN(C(=O)COc2ccc3nsnc3c2)CC1 | 48
COc1ccccc1-n1cc(CNC(=O)c2ccc(=O)n(C)c2)cn1 | 2
CCCCN(CC)CCCNC(=O)C1=C(C)C(=O)OC12CCN(S(C)(=O)=O)CC2 | 13
CCOC(=O)c1nc(NCC2CCN(Cc3ccccc3F)CC2)c2ccccc2n1 | -7
CCOC(=O)C1CCC(CNC(=O)Nc2ccc(-c3nc(-c4ccccc4)co3)cc2)CC1 (stereo not drawn) | 30
COc1cccc(S(=O)(=O)N2C[C@@H](O)COC[C@H]3O[C@@H](CC(=O)N4CCN(c5ccccc5)CC4)CC[C@@H]32)c1 | 7
CC(NC(=O)c1cn2c(n1)CCCC2)c1ccccn1 (stereo not drawn) | 95
CO[C@@H](CN(C)Cc1ccc2c(c1)OCO2)[C@H](C)CN(C(=O)c1ccccc1)[C@@H](C)CO | -36
C=CCN1C(=O)CC2C1CCN2c1cnccn1 (stereo not drawn) | -44
Cc1cc(=O)[nH]c(SC(C)C(=O)N2CCn3cncc3C2)n1 (stereo not drawn) | -1
CCSc1nc(CC(=O)NCCc2sccc2C)cs1 | 47
COc1ccc(-c2nc(NCCc3ccc(OC)c(OC)c3)c3ccccc3n2)cc1 | -86
CC1=NN(C)C(=O)/C1=N\OC(=O)c1ccc(Cl)cc1 | -24
CNC(=O)[C@@H]1C[C@@H](N)CN1Cc1cc(OC)cc(OC)c1 | 5
CCS(=O)(=O)N1CCC2(CC1)OC(=O)C(C)=C2C(=O)NCCc1ccccc1 | 54
NC(N)=NCC1COC2(CCCCC2)O1 (stereo not drawn) | 0
O=C(NC1CS(=O)(=O)CC1O)c1ccc(-n2ccnc2)c(C#Cc2ccccc2)c1 (stereo not drawn) | -8
O=C(N(Cc1nc2ccccc2c(=O)[nH]1)Cc1cccs1)C12CC3CC(CC(C3)C1)C2 | -41
Cc1ccc2c(c1)C(=O)CC1(CCN(CC(=O)Nc3nc4c(s3)CCCC4)CC1)O2 | -48
Cc1c(Br)sc(Br)c1-c1ccccc1 | -30
CCn1c(C2CCCN(C(=O)c3cc(C(F)(F)F)[nH]n3)C2)nn(C)c1=O (stereo not drawn) | 4
Cc1nccn1-c1ccccc1CNC(=O)c1cnn2ccn(C)c12 | -3
NC(=O)C1CCN(CCS(=O)(=O)c2ccccc2)CC1 | 49
COc1ccc(NC(=O)N(C)C[C@@H]2Oc3c(NS(=O)(=O)c4c(C)noc4C)cccc3C(=O)N([C@@H](C)CO)C[C@@H]2C)cc1 | -48
COCCN1C2(CCN(Cc3nccs3)C2)c2ccccc2S1(=O)=O (stereo not drawn) | 3
c1cc(-c2ccc(-c3ncnc4ccsc34)cc2)[nH]n1 | -82*
CCOC(=O)c1nc(NCCc2ccc(C)cc2)c2ccccc2n1 | -73*
The list goes on.
SMILES | Tgondii IFNg
Cn1ccn2ncc(C(=O)N3CC[C@@H](c4ccc5c(c4)OCO5)[C@H](O)C3)c12 | 2
CCOc1ccccc1N1CCN(Cc2cc3n(n2)CCCNC3)CC1 | -6
CCS(=O)(=O)N1CC2(CN(C(=O)NC(C)C)[C@@H](CO)c3c2c2ccc(OC)cc2n3C)C1 | 14
Cc1noc(C)c1S(=O)(=O)Nc1ccc2c(c1)C(=O)N([C@@H](C)CO)C[C@@H](C)[C@H](CN(C)C(=O)Nc1cccc3ccccc13)OCCCC[C@@H](C)O2 | 77
Cc1oc(-c2ccccc2Cl)nc1Cn1cnc2onc(C)c2c1=O | 43
Cc1oc2c(c1C(=O)N1CCNC(=O)C1Cc1ccc(-c3cccnc3)cc1)CCCC2 (stereo not drawn) | -16
N#C[C@H]1[C@@H](c2ccccc2-c2ccccc2F)[C@H](CO)N1C(=O)Cc1ccccc1 | -4
CNC(=O)[C@H]1C[C@@H]2CCN(C(=O)N(C)C)C[C@H]2O1 | 122
CCOc1ccc(N(Cc2nc(-c3ccc(OC)cc3)oc2C)S(=O)(=O)c2ccccc2)cc1 | 8
COc1ccc(/C=C(\NC(=O)c2ccc(C)cc2)c2nc(=S)[nH][nH]2)cc1OC | 4
COc1ccc(S(=O)(=O)N2CCC3(CC2)C(=O)NCCN3CC(C)C)cc1 | 72
Cc1nc(-c2ccccc2)sc1C(=O)Nc1ccc2c(c1)OCCO2 | -10
CCCNC(=O)N1CC2(CCN(S(=O)(=O)CC)CC2)c2c([nH]c3cc(OC)ccc23)[C@H]1CO | 276

Screens deposited in PubChem BioAssay by Broad Institute.

This is a subset. The share of hits here may be higher or lower than overall.
